Source: PubChem
gsp ag = activates gsp, the McCune-Albright syndrome mutation; gsp mutant cells, cAMP HTRF, 30 min; control for the full effect not named in the record; Potency, µM (series often up to 76.9 µM), for the others: at the highest dose activation (cAMP increase), most hits filed as activators; 340,000 tested, 0.13% active; AID 624287; active = well fitted activation curve with a large enough effect; inconclusive = small, poorly fitted or top-dose-only effect, or another doubt; inactive = no such curve, though single readings can be large or run the other way; cell line not stated here;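 note: phosphodiesterase inhibitor Ro 20-1724 added with compounds to block cAMP breakdown; potency is the fitted concentration of half-maximal effect; nearly all actives have a fitted effect of over 60% in size; about a fifth of the inactives were tested at one dose only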
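Cells stably selected in G418 were plated at 2000/well, grown 16-24 hr, then given compounds in DMSO with the PDE inhibitor […] (300 uM solution added) for 30 min at 37C; cAMP was read by HTRF.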
Sfp PPTase inh = blocks B. subtilis Sfp PPTase activity; Potency, µM, for inactives: max response, negative = inhibition, actives largely listed as inhibitors; AID 1490; 310,000 tested, 3.5% active; Q9F4F7; Biochemical Sfp PPTase activity, qHTS; active = well fitted inhibition curve with a large enough effect; inconclusive = small, poorly fitted or top-dose-only effect, or another doubt; inactive = no such curve, though single readings can be large or run the other way;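 note: the enzyme is Sfp with the accession as filed and its product quenches rhodamine fluorescence; potency is the fitted concentration of half-maximal effect; 0% = enzyme reaction without inhibitor and -100% = no enzyme wells; top concentration of the series not given in the record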
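Step 1, compound plus 15 nM Sfp-PPTase, 15 min, room temperature. Step 2, add rhodamine-CoA (5 uM) and BHQ-2-YbbR (12.5 uM). Step 3, read 525/598 nm fluorescence at 0 and 30 min.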
gsp antagonist = gsp mutant antagonism; 340,000 tested, 0.4% active; Potency, µM (titrated, usually from 76.9 µM), for the others: at the highest dose activity change, negative = inhibition, actives largely listed as inhibitors; gsp-mutant cells, cAMP HTRF, 30 min; control for the full effect not named in the record; active = falling curve of any shape with a large fitted effect; inconclusive = falling curve, mostly with a smaller effect; inactive = flat or rising curve; cell line not stated here;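 note: intracellular cAMP measured with PDE inhibitor Ro 20-1724 present during compound exposure; potency is the fitted concentration of half-maximal effect; % is set by controls: 0 for no effect and ±100 for the full control effect; nearly all actives have a fitted effect of over 65% in size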
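HTRF cAMP measurement after 30 min RT detection following 30 min, 37C compound treatment alongside […] (added as 300 uM solution) in G418-selected cells seeded at 2000/well and grown 16–24 h.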
Menin MLL FP FL = menin-MLL binding inhibition, fluorescein peptide; Fluorescence polarization, fluorescein-MLL peptide displacement from menin; FP activity change, % at 61.4 µM; 290,000 tested, under 10 active; AID 1766; inconclusive = falling polarisation curve, or a change in total fluorescence; inactive = total fluorescence flat and polarisation flat or rising; no compound was filed as active; the % refers to the polarisation; negative = inhibition;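 note: % of control where 0% means no effect; inhibitors lower the polarisation; unlabelled MLL peptide was the positive control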
D2 ag = activates the human D2 dopamine receptor | AID 624465 | P14416 | 360,000 tested, 0.084% active | activation, % (concentration not given with the values) | DiscoveRx PathHunter D2 beta-arrestin, luminescence, 90 min; 100% = 57 uM dopamine signal; in the data active = activation above about 40%; inconclusive = about 15% to 40%; inactive = below about 15%; note: compound concentration not given in the record; the text of the record calls up to 30% inactive
Target sequence (P14416 whole entry, looked up): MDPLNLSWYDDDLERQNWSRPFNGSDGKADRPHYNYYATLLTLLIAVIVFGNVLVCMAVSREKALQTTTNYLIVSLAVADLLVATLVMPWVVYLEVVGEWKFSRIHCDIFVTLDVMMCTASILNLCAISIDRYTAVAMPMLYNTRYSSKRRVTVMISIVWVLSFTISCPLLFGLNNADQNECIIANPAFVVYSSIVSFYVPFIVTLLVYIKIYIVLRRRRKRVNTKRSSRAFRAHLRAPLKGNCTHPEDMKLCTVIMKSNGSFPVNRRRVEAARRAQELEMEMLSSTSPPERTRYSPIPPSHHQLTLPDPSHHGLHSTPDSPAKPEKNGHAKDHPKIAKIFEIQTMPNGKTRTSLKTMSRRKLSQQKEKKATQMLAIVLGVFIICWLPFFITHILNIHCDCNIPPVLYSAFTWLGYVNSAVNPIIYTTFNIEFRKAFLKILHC
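DiscoveRx PathHunter D2 beta-arrestin cells (2,100/well) attached overnight, then compound-stimulated 90 min at 37 C in HBSS/10 mM HEPES/0.1% Tween-20 buffer; beta-galactosidase complementation read by luminescence after 1 h at ambient temperature. Dopamine 57 uM final (EC100) as control.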
PINK1 modulator = changes PINK1 expression | 410,000 tested, 0.2% active | PINK1 immunofluorescence, high-content cytometry, 24 h | AID 624263 | Potency, µM (top dose mostly 76.6 µM), for the others: at the top dose activation (PINK1 increase), most hits filed as activators; active = well fitted activation curve with a large enough effect; inconclusive = small, poorly fitted or top-dose-only effect; inactive = flat fitted curve, though single readings scatter; cell line not stated here;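 note: potency is the fitted concentration of half-maximal effect; % of control where 0% means no effect; nearly all actives have a fitted effect of over 65% in size; a mitochondrial uncoupler was the plate control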
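Measures PINK1 amount and localization on or inside mitochondria by immunofluorescence. Stable cells get compounds at 5 concentrations for 24 hours before fixation and staining; CCCP controls included.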
ClpP mod = qHTS Assay for Activators of ClpP; Potency, µM (titrated, usually from 57.5 µM), without a hit: at the highest dose activity change, negative = active; purified B. subtilis ClpP, FRET peptide cleavage, 20 min; 340,000 tested, 1.9% active; active = well fitted falling curve with a large enough effect; inconclusive = small, poorly fitted or top-dose-only effect; inactive = no such curve, though single readings can be large or run the other way; note: potency is the fitted concentration of half-maximal effect; the source files actives as falling curves though it sought activators and does not explain the sign; nearly all actives have a fitted effect of over 65% in size; many hits overshoot -100%
Target sequence (P80244 whole entry, looked up): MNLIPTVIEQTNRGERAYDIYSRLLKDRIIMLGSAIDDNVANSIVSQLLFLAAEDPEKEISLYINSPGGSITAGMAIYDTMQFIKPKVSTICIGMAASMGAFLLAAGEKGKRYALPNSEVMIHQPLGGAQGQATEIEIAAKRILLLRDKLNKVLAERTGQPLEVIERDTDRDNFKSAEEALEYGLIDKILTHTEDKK
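Buffer: 100 mM Tris/HCl pH8, 100 mM KCl, 0.05% low protease BSA, 2.5% glycerol, 0.01% Tween-20. ClpP 10 microg/mL final; 20 min RT; delta FRET normalized to ADEP and DMSO controls.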
Active calls of the source: *; ? = inconclusive; / = no result given; & = joins results of further samples; [ ] = another dose, or the depositor's remark.

Structure	Menin MLL FP FL	gsp ag	D2 ag	gsp antagonist	ClpP mod	PINK1 modulator	Sfp PPTase inh
S=C(NCCCN1CCOCC1)NC1CCCC1	-0.6	5%[15.4 µM]	-4.6	-8%	/	-0.7%	-2%
OC(COc1ccc(Cl)cc1)CN1CCC(Cc2ccccc2)CC1 (centres undefined)	/	-2%	1.2	5%	-0.6%	2.1%	5%
O=C(O)c1c2c(nc3ccc(S(=O)(=O)N4CCC(C(=O)NC5CCCC5)CC4)cc13)CCCCC2	-2.6	11%	-6.1	1%	-0.6%	-0.1%	15%
COc1ccccc1OC(C)C(=O)Nc1ccccc1C(=O)NCC1CCCO1 (centres undefined)	-8.2	-15%[15.4 µM]	-0.9	-13%	/	-0.6%	24%
Cc1ccc(-n2cc(CNCCc3ncc(C)[nH]3)c(-c3ccc(F)cc3)n2)cc1	-2.3	-3%	-4.6	-7%	/	-1.8%	56µM*
Cc1ccc(OC(=O)c2ccc(C)c(C)c2)cn1	1.7	2%	-1.3	2%	0.0%	1.3%	9%
O=c1oc2c(CN3CCOCC3)c(O)ccc2c2ccccc12	-2.3	?	-1.6	4%	-1.7%	2.6%	1%
CCOC(=O)C1CCN(Cc2ccc(N(C)C)cc2)CC1	0.9	1%	1.5	-8%	-2.5%	-3.5%	-15%
O=C(NCCCn1ccnc1)/C(=C/c1ccc(F)cc1)NC(=O)c1ccccc1	/	-3%[15.4 µM]	-5.8	3%	/	-0.4%	16%
O=C(O)CCCCCNc1nc2ncn(Cc3ccccc3)c2c(=O)[nH]1	2.9	-6%	1.3	2%	-1.4%	-6.1%[38.3 µM]	-3%

New compounds follow.
Structure	Menin MLL FP FL	gsp ag	D2 ag	gsp antagonist	ClpP mod	PINK1 modulator	Sfp PPTase inh
C/C(CCc1ccc2c(c1)OCO2)=N\N=C1\NC(=O)CC(C(=O)Nc2ccccc2F)S1 (centres undefined)	3.2	0%[15.4 µM]	-1.2	-6%	/	-1.0%	?
O=C1[C@H](Oc2ccccc2)[C@@H](c2ccncc2)N1c1ccncc1	/	/	-0.5	11%	0.7%	0.4%	/
CN(C)S(=O)(=O)c1ccc(C(=O)Nc2ccc3c(c2)CCC3)cc1	0.2	1%	5.5	-18%	-0.8%	5.6%	5%
O=C(C[n+]1ccccc1)N/N=C/c1cc(Br)cc(Br)c1O	?	-14%[15.4 µM]	-7.5	22%	1.0%	-1.0%	3%
CCOC(=O)Oc1ccc2oc(=O)cc(C)c2c1	0.1	?	-2.6	1%	-0.9%	-0.3%	5%
O=C(CN(Cc1ccccc1)C(=O)c1cccc([N+](=O)[O-])c1)Nc1c(Cl)cc(Cl)cc1Cl	0.8	2%	-4.1	-1%	1.3%	9.3%	?
O=S(=O)(c1ccc(Cl)cc1)N1CCC2(CC1)CO2	-1.0	-2%[15.4 µM]	-3.5	-5%	/	-0.5%	18%
COc1ccc(CCN2CC3=C(C2=O)C(c2ccccc2)NC(=O)N3C)cc1OC (centres undefined)	-1.3	1%	1.0	-13%	-1.9%	-0.9%	4%
Cc1cc(C)nc(-n2nc(C)c3c(C(F)(F)F)cc(=O)[nH]c32)n1	4.0	?	-0.8	3%	-24%	1.0%	-2%
O=C(O)c1ccccc1P(=O)(c1ccccc1)c1ccccc1	-1.3	6%[15.4 µM]	-5.6	7%	0.1%	0.0%	12%

New compounds follow:
Structure	Menin MLL FP FL	gsp ag	D2 ag	gsp antagonist	ClpP mod	PINK1 modulator	Sfp PPTase inh
CC1CCCN(C(=O)c2cc(F)c(F)cc2Cl)C1 (centres undefined)	2.2	?	-0.2	5%	0.0%	4.9%[38.3 µM]	11%
NC(=O)c1ccc(NCc2ccco2)c([N+](=O)[O-])c1	-0.8	22%	-4.1	5%	-1.4%	-1.4%	-1%
CCn1c(SCC(=O)N2CCCC(C)C2)nc2c1c(=O)n(C)c(=O)n2C (centres undefined)	8.0	27%[15.4 µM]	0.3	8%	/	-2.0%	10%
C(/CCc1ccccc1)=N\n1cnnc1	-0.7	-8%	4.6	9%	-1.2%	-2.0%[38.3 µM]	22%
Fc1ccc(Nc2nc(N3CCOCC3)nc(N3CCOCC3)n2)cc1Cl	/	?	3.5	-5%	-0.3%	7.1%	-22%
Cc1nn(-c2ccccc2)c(C)c1/C=N/NC(=O)c1cc(-c2ccc(Br)s2)[nH]n1	-1.4	0%	-0.8	-7%	-1.6%	-3.3%	-1%
COc1ccc(S(=O)(=O)N2CCN(c3ccccc3OC)CC2)cc1	-1.4	?	4.2	9%	2.9%&1.0%	0.0%&-0.1%	20%
CCc1ccc(NS(=O)(=O)c2cc3c4c(c2)CCN4C(=O)CC3)cc1	/	-12%[15.4 µM]	3.0	20%	-1.1%	-0.3%	/
Cc1ccc(C23CC4CC(CC(CC(=O)NC(C)(C)CO)(C4)C2)C3)cc1	5.0	7%	3.8	-15%	1.0%	1.3%	7%
O=C(Cc1ccc2c(c1)OCCO2)c1c(O)cc(O)cc1O	2.9	0%	-2.9	-24%	0.3%	/	-4%

(next part)
Structure	Menin MLL FP FL	gsp ag	D2 ag	gsp antagonist	ClpP mod	PINK1 modulator	Sfp PPTase inh
CC1CCCCN1C(=O)Cn1c(=O)n(C2CCCCC2)c(=O)c2ccccc21 (centres undefined)	2.2	0%	-0.1	-5%	-22%	6.4%	17%
COc1cc(CCC(=O)OCC(=O)Nc2ccccc2OC(F)F)cc(OC)c1OC	0.4	7%[15.4 µM]	-1.8	-8%	/	2.6%	13%
CCCCC(=O)N(C)c1c(CC)nc2c(OCc3ccc(C(F)(F)F)cc3)cccn12	/	/	-4.2	/	-0.6%	26%	/
CC1(C)CC(=O)C(C=NCCN2CCN(CCCCS(=O)(=O)O)CC2)=C(O)C1	1.0	-49%[inhibitor]	-2.1	-1%	-0.7%	3.3%[38.3 µM]	-1%
CC[C@@H]1CC=C[C@H]2[C@H]1C(=O)N(Cc1ccccc1)[C@H]2c1ccc(OC)c(Cl)c1	0.8	/	-2.8	-9%	-1.1%	29%	-13%
COc1cc(O)c(C(CCN2CCCC(C)C2)c2cc(OC)c(OC)c(OC)c2)c(OC)c1 (centres undefined)	-3.6&0.5	/	-2.3	9%	0.9%	0.3%	21%&6%
COC(=O)c1ccc(COc2ccc(/C=N/O)cc2)o1	-25	1%	0.3	-4%	1.4%	0.5%	-9%
Nn1c(SCc2ccc(Br)cc2)nnc1-c1ccncc1	3.7	11%	-3.1	1%	-1.1%	2.1%	2%
O=C(c1ccc(Cl)cc1)N1CCC(O)(CSc2ccc(Cl)cc2Cl)CC1	3.0	-45%	-0.7	4%	-4.1%	10.0%	-1%
O=C(C[n+]1cc(-c2ccccc2)n2c1CCC2)Nc1nc(-c2ccc(F)cc2)cs1	-15	-8%	4.8	4%	-0.7%	0.9%	-17%

(listing goes on)
Structure	Menin MLL FP FL	gsp ag	D2 ag	gsp antagonist	ClpP mod	PINK1 modulator	Sfp PPTase inh
CCOc1ccc(C(Nc2ccc(C)cc2)P2(=O)OCCC(C)O2)cc1 (centres undefined)	1.2	-19%	-2.5	1%	1.2%	-1.0%	-1%
O=S(=O)(NC1C2CC3CC(C2)CC1C3)c1ccc(F)cc1 (centres undefined)	/	8%[15.4 µM]	-1.1	0%	-3.4%	2.6%	/
O=C1NN(c2ccccc2)C(=O)/C1=C\c1cccc(OC(=O)c2cccs2)c1	6.6	?	-2.0	-6%	1.2%	2.6%	50µM*
COc1cccc(N=CNc2cccc(OC)c2)c1	/	16%[15.4 µM]	-2.5	-1%	-2.5%	-0.5%	/
S=C(NCCc1ccccc1)NCC1CCCO1 (centres undefined)	-1.1	5%	-3.6	8%	-9.6%	1.2%	-12%
CCOc1cc(/C=C2\SC(=S)N(C(C(=O)O)c3ccccc3)C2=O)ccc1O (centres undefined)	?	11%	-11	-5%	-0.4%	0.0%	40µM*
CCOc1ccc(OCCC(=O)N2CCN(S(=O)(=O)c3ccc(OCC)cc3)CC2)cc1	-4.2	0%	-0.8	6%	-2.1%	2.0%	8%
CCN(CC)CCN(C(=O)c1ccc(Br)s1)c1nc2cc3c(cc2s1)OCO3	1.0	22%	-3.6	-7%	-0.2%	1.1%	7%
CS(=O)(=O)N(CC(=O)Nc1ccccc1C(=O)N1CCOCC1)c1ccc(Cl)cc1	-1.8	2%	-5.3	1%	-1.6%	2.4%	3%
Cc1cc(NC(=O)c2cc(C(C)C)on2)no1	-0.6	-88%	-2.1	10%	-1.6%	2.1%	2%

Going on with the list.
Structure	Menin MLL FP FL	gsp ag	D2 ag	gsp antagonist	ClpP mod	PINK1 modulator	Sfp PPTase inh
Cc1ccccc1-c1nn[nH]n1	1.8	26%	-3.7	-2%	-2.1%	-16%[38.3 µM]	18%
Cc1cc(=O)oc2cc(NC(=O)c3cc(F)ccc3F)ccc12	/	0%	-0.1	1%	4.4%	9.3%	/
COc1ccc(CN(CC2CCCO2)C(=O)c2cc3ccccc3oc2=O)cc1 (centres undefined)	-0.9	-5%	-1.3	-6%	-0.3%	2.5%	26%
CCN1CCN(c2cc3nc(C)n(Cc4ccccc4)c(=O)c3cc2NC(=O)c2ccccc2F)CC1	-2.8	-7%	-4.1	11%	/	-1.1%	8%
O=C1C(=O)N(Cc2ccncc2)C(c2cccc(O)c2)/C1=C(\O)c1ccc2c(c1)OCCO2 (centres undefined)	-2.6	?	5.2	-11%	-4.4%	10%	-12%
CC(C(=O)OCC(=O)c1cccc([N+](=O)[O-])c1)N1C(=O)C2C3C=CC(C3)C2C1=O (centres undefined)	/	-9%[15.4 µM]	-9.5	8%	/	-0.3%	13%
Cc1cc(C)nc(N2CCC(C(=O)NCc3ccco3)CC2)n1	0.6	-8%	-1.5	13%	16µM*	1.6%[38.3 µM]	10%
CN(C(=O)CSc1nnc(-c2c[nH]c3ccccc23)n1C1CC1)C1CCS(=O)(=O)C1 (centres undefined)	/	-1%	-0.3	-10%	-0.8%	1.2%	/
